# Screens as filed in PubChem BioAssay.
# Sfp inh = blocks B. subtilis Sfp PPTase activity. Potency, µM, for the others: max response, negative = inhibition, hits mostly inhibitors. Biochemical Sfp PPTase activity, qHTS. hit rate 3.5% among 310,000. Q9F4F7; active = well fitted inhibition curve with a large enough effect; inconclusive = small, poorly fitted or top-dose-only effect, or another doubt; inactive = no such curve, though single readings can be large or run the other way;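 note: the enzyme is Sfp with the accession as filed and its product quenches rhodamine fluorescence; potency is the fitted concentration of half-maximal effect; 0% = enzyme reaction without inhibitor and -100% = no enzyme wells; top concentration of the series not given in the record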
#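 Fluorescence-quenching assay: 15 nM Sfp-PPTase preincubated 15 min at room temperature with compound, then 5 uM rhodamine-CoA and 12.5 uM BHQ-2-labelled YbbR peptide added. Fluorescence (ex 525/em 598 nm) read at start and after 30 min; difference gives rate.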
# PINK1 modulator = modulators of PINK1 expression; PINK1 immunofluorescence, high-content cytometry, 24 h; Potency, µM (doses to about 76.6 µM), for inactives: at the top dose activation (PINK1 increase), usual class: activators; hit rate 0.2% among 410,000; AID 624263; active = well fitted activation curve with a large enough effect; inconclusive = small, poorly fitted or top-dose-only effect; inactive = flat fitted curve, though single readings scatter; cell line not stated here;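 note: potency is the fitted concentration of half-maximal effect; % of control where 0% means no effect; nearly all actives have a fitted effect of over 65% in size; a mitochondrial uncoupler was the plate control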
#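 Stable cell line, 250 cells/well, 12 h attachment; compounds pinned at 5 concentrations, 24 h; CCCP control. Fixed with nuclear dye, primary antibodies 12 h at 10 degrees C, secondary plus cell stain; laser-scanning cytometer read.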
# Menin MLL FP FL = displaces fluorescein MLL peptide from human menin; Fluorescence polarization, fluorescein-MLL peptide displacement from menin; FP activity change, % at 61.4 µM; 290,000 tested, under 10 active; AID 1766; inconclusive = falling polarisation curve, or a change in total fluorescence; inactive = total fluorescence flat and polarisation flat or rising; no compound was filed as active; the % refers to the polarisation; negative = inhibition;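 note: % of control where 0% means no effect; inhibitors lower the polarisation; unlabelled MLL peptide was the positive control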
# ClpP mod = qHTS Assay for Activators of ClpP. ATP-dependent Clp protease proteolytic subunit (Bacillus subtilis (strain 168)), P80244. purified B. subtilis ClpP, FRET peptide cleavage, 20 min. Potency, µM (doses to about 57.5 µM), without a hit: at the highest dose activity change, negative = active. hit rate 1.9% among 340,000; active = well fitted falling curve with a large enough effect; inconclusive = small, poorly fitted or top-dose-only effect; inactive = no such curve, though single readings can be large or run the other way; note: potency is the fitted concentration of half-maximal effect; the source files actives as falling curves though it sought activators and does not explain the sign; nearly all actives have a fitted effect of over 65% in size; many hits overshoot -100%
# Target sequence (P80244 whole entry, looked up): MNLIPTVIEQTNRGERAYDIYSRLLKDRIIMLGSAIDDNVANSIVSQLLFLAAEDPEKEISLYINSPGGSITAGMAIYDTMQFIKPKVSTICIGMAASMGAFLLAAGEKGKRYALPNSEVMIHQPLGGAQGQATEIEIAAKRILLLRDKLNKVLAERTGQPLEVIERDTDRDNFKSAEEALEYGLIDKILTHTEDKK
#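 Buffer: 100 mM Tris/HCl pH8, 100 mM KCl, 0.05% low protease BSA, 2.5% glycerol, 0.01% Tween-20. ClpP 10 microg/mL final; 20 min RT; delta FRET normalized to ADEP and DMSO controls.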
# D2 agonist = agonists of human D2 dopamine receptor (beta-arrestin). AID 624465. P14416. hit rate 0.084% among 360,000. DiscoveRx PathHunter D2 beta-arrestin, luminescence, 90 min; 100% = 57 uM dopamine signal. activation, % (concentration not given with the values); in the data active = activation above about 40%; inconclusive = about 15% to 40%; inactive = below about 15%; note: compound concentration not given in the record; the text of the record calls up to 30% inactive
# Target sequence (P14416 whole entry, looked up): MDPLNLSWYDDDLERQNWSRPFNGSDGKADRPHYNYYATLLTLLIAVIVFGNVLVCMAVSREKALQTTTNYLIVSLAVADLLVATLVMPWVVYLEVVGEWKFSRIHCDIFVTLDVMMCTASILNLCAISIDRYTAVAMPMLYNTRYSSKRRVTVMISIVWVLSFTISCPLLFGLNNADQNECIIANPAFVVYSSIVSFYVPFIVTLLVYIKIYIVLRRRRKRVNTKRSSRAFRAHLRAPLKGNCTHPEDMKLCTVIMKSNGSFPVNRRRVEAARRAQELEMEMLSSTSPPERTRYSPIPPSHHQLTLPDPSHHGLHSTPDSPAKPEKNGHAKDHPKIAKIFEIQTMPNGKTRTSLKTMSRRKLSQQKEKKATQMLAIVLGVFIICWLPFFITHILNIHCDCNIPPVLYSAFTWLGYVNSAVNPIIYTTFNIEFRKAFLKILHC
#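 DiscoveRx PathHunter D2 beta-arrestin cells (2,100/well) attached overnight, then compound-stimulated 90 min at 37 C in HBSS/10 mM HEPES/0.1% Tween-20 buffer; beta-galactosidase complementation read by luminescence after 1 h at ambient temperature. Dopamine 57 uM final (EC100) as control.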
# gsp antag = antagonizes gsp, the McCune-Albright syndrome mutation; gsp-mutant cells, cAMP HTRF, 30 min; control for the full effect not named in the record; Potency, µM (titrated, usually from 76.9 µM), for inactives: at the top dose activity change, negative = inhibition, hits mostly inhibitors; hit rate 0.4% among 340,000; active = falling curve of any shape with a large fitted effect; inconclusive = falling curve, mostly with a smaller effect; inactive = flat or rising curve; cell line not stated here;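 note: intracellular cAMP measured with PDE inhibitor Ro 20-1724 present during compound exposure; potency is the fitted concentration of half-maximal effect; % is set by controls: 0 for no effect and ±100 for the full control effect; nearly all actives have a fitted effect of over 65% in size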
#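 Measurement of cellular cAMP by homogeneous time-resolved fluorescence following a 30 min compound exposure at 37C. The PDE inhibitor […] was present throughout; the assay buffer was DPBS with 0.05% BSA and 0.005% Tween 20.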
# gsp agonist = gsp mutant agonism; gsp mutant cells, cAMP HTRF, 30 min; control for the full effect not named in the record; Potency, µM (doses to about 76.9 µM), without a hit: at the top dose activation (cAMP increase), hits mostly activators; hit rate 0.13% among 340,000; AID 624287; active = well fitted activation curve with a large enough effect; inconclusive = small, poorly fitted or top-dose-only effect, or another doubt; inactive = no such curve, though single readings can be large or run the other way; cell line not stated here;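 note: phosphodiesterase inhibitor Ro 20-1724 added with compounds to block cAMP breakdown; potency is the fitted concentration of half-maximal effect; nearly all actives have a fitted effect of over 60% in size; about a fifth of the inactives were tested at one dose only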
#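 Cells stably selected in G418 were plated at 2000/well, grown 16-24 hr, then given compounds in DMSO with the PDE inhibitor […] (300 uM solution added) for 30 min at 37C; cAMP was read by HTRF.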
# Starred values were filed as active, the others as inactive; ? = inconclusive; . = no result given; & = joins results of further samples; [ ] = dose if it differs, or a comment. This is a random part of the collection; about 5.1% have a hit in one of these screens.
SMILES,Sfp inh,PINK1 modulator,Menin MLL FP FL,ClpP mod,D2 agonist,gsp antag,gsp agonist
CCc1ccc(N2CC(C(=O)N3CCCCCC3)CC2=O)cc1 (stereo not drawn),10%,0.7%,-4.3,.,-3.9,4%,0%[15.4 µM]
COc1cc(OC)c(OC)cc1CNC(=O)c1ccc(COc2ccccc2)cc1,0%,0.2%,-0.7,.,3.0,-8%,-19%
Cc1c(NC(=O)Nc2ccc(C(C)(C)C)cc2)c(=O)n(-c2ccccc2)n1C,11%,0.4%,-14,.,-0.1,1%,-9%
COc1cccc([C@@H]2CC=C(C(=O)O)[C@H](c3cccc(Cl)c3)N2S(=O)(=O)c2ccc(C)cc2)c1,.,0.2%,.,1.6%,-3.2,-17%,8%
COc1ccc(C(=O)N/N=C\c2coc3ccc(Cl)cc3c2=O)cc1,4%,0.7%,5.8,?,-3.1,-13%,13%
O=C(c1ccc(C(F)(F)F)cc1)N1CCC(=O)N(C(COCc2ccccc2)Cc2ccccc2)CC1 (stereo not drawn),3%,1.5%,5.7,2.1%,-4.3,-12%,-15%
Cc1ccc(CNn2cnnc2SCc2ccc(F)cc2)cc1,15%,0.1%[38.3 µM],-1.2,2.4%,-1.5,-8%,-55%[inhibitor]
C#CCN(C[C@@H]1[C@@H](OC(=O)NC2CC2)[C@@H](OC(=O)NC2CC2)Cn2c(=O)ccc(=O)n21)S(=O)(=O)c1ccc(C)cc1,.,4.5%,.,-0.2%,-6.1,.,?
CN1CCN(C(=O)c2cc3ccccc3[nH]2)CC1,5%,-0.8%,0.1,-8.2%,-0.7,4%,9%
COCCNC(=O)CSc1nc(N)c(NC(=O)c2ccccc2F)c(=O)[nH]1,4%,-1.1%,7.3,-2.3%,0.8,8%,-24%
Cn1cccc1C1CCCN1CC(=O)Nc1ccc(C(N)=O)cc1 (stereo not drawn),.,0.6%,.,-0.8%,6.2,4%,12%
O=c1cc(CN2CCN(Cc3ccc(F)cc3)C(CCO)C2)[nH]c2ccccc12 (stereo not drawn),-1%,0.6%,-0.2,.,2.8,0%,-28%
CCOc1ccccc1N1CN(C2CCCCC2)CNC1=S,2%,0.7%,-1.3,.,-1.1,5%,-7%
Cc1ccc(N2C(=O)N(CC(=O)Nc3ccc(C)cc3[N+](=O)[O-])C(=O)C2C)cc1 (stereo not drawn),.,-0.4%,.,-4.9%,-5.4,4%,-10%
NC(=O)c1ccccc1NC(=O)COc1ccc(Cl)cc1,13%,0.2%,8.3,-7.5%,-3.0,2%,16%
Cc1cc(=O)[nH]c(N/N=C2/CCCC/C2=C\c2ccccc2)n1,2%,-0.5%,0.9,-2.6%,-0.7,1%,-7%
C/C(=N\NC(=O)c1ccc(C(=O)N/N=C(\C)c2ccco2)o1)c1ccco1,3%,0.7%,-0.6,0.4%,-1.3,-10%,17%[15.4 µM]
CC[C@H](C)Cc1cn([C@@H](CCCCNC(=O)OC(C)(C)C)C(=O)NCCCCCCCCCCC(=O)N2CCN(C(=O)OC(C)(C)C)CC2)nn1,.,-0.4%,.,1.3%,2.9,-11%,.
CCCCc1ccc(NC(=O)N[C@@H](C)C(=O)O)cc1,4%,1.2%,3.3,.,-5.2,9%,14%
O=C(O)CCn1ccnc1-c1ccccc1,5%,-3.0%,5.6,1.1%,-3.6,-4%,-12%
COc1ccccc1CNC(=O)Cc1csc(NC(=O)Nc2ccccc2OC)n1,.,-2.0%,.,1.1%,0.1,?,-24%
CC(NC(=O)COC(=O)CCNC(=O)c1ccco1)C12CC3CC(CC(C3)C1)C2 (stereo not drawn),16%,-0.8%,0.9,-1.1%,-1.8,-3%[15.4 µM],-3%
CCC(C)N(CCNC(=O)c1ccc(NC2=NC3CS(=O)(=O)CC3S2)cc1)Cc1ccco1 (stereo not drawn),12%,-0.8%,-0.6,2.3%,-2.9,8%,-39%[inhibitor]
CSC[C@H]1CN(c2ccccc2)C(=O)[C@@H]1CC(=O)Nc1ccccc1,.,-1.2%,.,1.7%,-5.2,.,?
Clc1ccc2nc(-c3ccccc3)c(Cc3ccccc3)n2c1,.,1.0%,.,-29%,-5.8,.,-67%[inhibitor]

# 3 of the entries above in order of their number in Sfp inh, highest first:
canonical_smiles	Sfp inh
NC(=O)c1ccccc1NC(=O)COc1ccc(Cl)cc1	13%
COc1ccc(C(=O)N/N=C\c2coc3ccc(Cl)cc3c2=O)cc1	4%
COc1cc(OC)c(OC)cc1CNC(=O)c1ccc(COc2ccccc2)cc1	0%

# New compounds follow
SMILES,Sfp inh,PINK1 modulator,Menin MLL FP FL,ClpP mod,D2 agonist,gsp antag,gsp agonist
O=C(COC(=O)/C=C/C(=O)OCC(=O)NC12CC3CC(CC(C3)C1)C2)NC12CC3CC(CC(C3)C1)C2,-9%,-5.7%,1.8,-1.7%,-6.5,6%,20%
COc1ccc(OC)c(-n2c(C)cc(C=O)c2C)c1,9%,3.6%,2.6,1.5%,-2.2,12%,-4%[15.4 µM]
CC(C)(C)C1CCC(OCC(O)CN2CCN(c3ccccc3)CC2)CC1 (stereo not drawn),6%,6.7%,4.1,?,?,13%,6%
COc1ccc(S(=O)(=O)N2CCN(CC(=O)NC(C)c3cccs3)CC2)cc1 (stereo not drawn),.,1.4%,.,0.3%,1.2,.,15%
Cc1c(-n2c(SCC(N)=O)nc3ccccc3c2=O)c(=O)n(-c2ccccc2)n1C,7%,0.0%,-5.8,.,-0.8,11%,2%[15.4 µM]
Cc1ccc(NC(=O)CCSc2nc(C)cc(C)n2)cc1,21%,0.1%,2.4,1.3%,-0.6,18%,?
Nc1nnc(SCC(=O)NC2CCCCCC2)s1,.,0.6%,.,?,-5.3,-14%,-5%
CCCCCC(=O)Nc1ccc(-c2csc(N)n2)cc1,?,-0.9%,0.8,-1.5%,0.4,?,-1%[15.4 µM]
COC(=O)COc1ccc(/C=N/NS(=O)(=O)c2ccccc2)cc1,23%,2.4%,-2.4,-1.1%,-1.9,-14%,-1%[15.4 µM]
CC1=NN(CCC#N)C(=O)/C1=C/c1ccc(N(C)C)cc1,4%,1.9%,28,.,-2.3,-11%,1%[15.4 µM]
CCOc1ccc(NC(=O)CN(C)C(=O)c2ccc(OCC3CCCO3)cc2)cc1OCC (stereo not drawn),3%,2.1%,.,-14%,2.0,5%,11%[15.4 µM]
CCOc1cccc(C(=O)NC(=S)Nc2ccc(N3CCCC3)cc2)c1,?,4.3%,0.5,2.4%,-0.4,-1%,-14%
Cc1nnc2sc(-c3ccccn3)nn12,10%,-1.4%,-5.3,-4.3%,0.3,4%,2%
CCOc1ccc(NC(=O)C2CCCN(c3nn4c(=O)cc(C)nc4s3)C2)cc1 (stereo not drawn),-15%,1.5%,.,0.1%,7.9,-5%,-5%
O=C(NCc1ccco1)/C(=C/c1ccccc1)NC(=O)c1ccco1,15%,1.8%,2.5,.,-4.8,4%,19%[15.4 µM]
CNc1ccc(/C=C2\COc3ccccc3C2=O)cc1[N+](=O)[O-],-7%,13%,0.1,2.9%,-0.2,5%,-44%[inhibitor]
COc1ccc(/C=C(/C#N)C(=O)Nc2cccc([N+](=O)[O-])c2)cc1C(=O)O,14%,-2.1%,2.4,.,-4.6,3%,0%
COc1ccc(-c2c3c(=O)n(C)c(=O)n(C)c3cn2-c2ccccc2O)cc1,-12%,1.1%,0.4,0.6%,-7.1,2%,-5%
CCOc1ccc(CN2CCC(C(=O)N3CCN(c4ccccc4F)CC3)CC2)cc1OC,-17%,-0.4%,2.6,0.0%,-3.1,1%,-1%
O=C(OCc1ccc([N+](=O)[O-])cc1)c1cc([N+](=O)[O-])ccc1N1CCOCC1,.,4.3%,.,-3.1%,0.2,-6%,-30%
COc1ccccc1CC(=O)N1CCN(S(=O)(=O)c2ccccc2F)CC1,.,-0.9%,.,0.5%,-1.2,8%,-10%
O=C(COc1ccccc1)NC1CCCCCCC1,8%,0.1%,.,-3.3%,-0.6,4%,2%
O=C1c2ccc([N+](=O)[O-])cc2NC(c2ccco2)N1/N=C/c1ccco1 (stereo not drawn),?,1.1%,-0.4,.,1.6,-10%,-1%
CC1CCC(C(C)C)C(OC(=O)C[n+]2cccc(C(N)=O)c2)C1 (stereo not drawn),19%,1.5%,1.7,0.7%,-1.4,8%,7%
COc1ccc(-n2nc(C(=O)NCC(=O)NCCCN3CCOCC3)c3ccccc3c2=O)cc1,2%,2.3%,-1.2,.,-4.0,15%,?
# Next section
SMILES,Sfp inh,PINK1 modulator,Menin MLL FP FL,ClpP mod,D2 agonist,gsp antag,gsp agonist
CC(=O)N1[C@H](C)C=C[C@]1(Cc1ccccc1)C(=O)NCCc1c[nH]c2ccccc12,1%&-3%,-0.7%,0.7&3.5,-1.1%,0.5,-1%,.
O=C(CCn1c(=O)oc2ccccc21)Nc1ccc(N2CCOCC2)cc1,10%,-2.1%,5.5,.,-5.2,-1%,-22%
O=C(Nc1cccc(Cl)c1)N1CCN2C(=O)c3ccccc3C12c1ccccc1 (stereo not drawn),17%,13%,2.3,16µM*,-0.3,-28%,-17%
O=C(NC1CCCCC1)c1ccc(S(=O)(=O)c2ccccc2)cc1,-28%,0.8%,-0.3,.,9.4,6%,6%[15.4 µM]
CC(C)[C@H]1COCCS(=O)(=O)N1Cc1ccccc1-c1ccc(F)cc1,.,-0.2%,.,-0.2%,-3.9,-4%,.
COCCNC(=O)Cn1cc(C(=O)c2ccco2)c2ccccc21,22%,-0.1%,-1.7,-0.5%,-4.0,2%,8%[15.4 µM]
COC(=O)c1cc(S(=O)(=O)NCC2CCN(Cc3ccc(Cl)cc3)CC2)cn1C,11%,-1.3%,-0.5,-1.6%,0.9,5%,-4%
COc1cccc2cc(C(=O)OC3CCN(C)CC3)c(=O)oc12,-11%,1.3%,0.1,-2.2%,-0.9,-3%,0%
